HSV replic up: increases HSV replication in cells | actives 0.005% (n = 220,000) | HSV replication augmentation in cells, fold increase | AID 1956 | maximum fold increase;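 active = peak rise of 1.5-fold or more in the series; inconclusive = self-fluorescent or not available for retest; tested in PC3 cells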;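 also: first round at 10 µM; read as green reporter fluorescence; hits show the peak of a series up to 25 µM; 1 = signal of infected wells without compound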
GALR2 agonist: activates the human galanin receptor 2. activation, %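 (tested at 5 µM)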. GALR2-expressing cells, agonist activation read-out. actives 0.48% (n = 140,000). O43603;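 active = above mean plus 3 SD of all compounds, about 5% in these data, not always enough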;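 also: 0% = vehicle buffer wells and 100% = reference agonist at full effect; tested in CHO reporter cells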
Target sequence (O43603 whole entry, looked up): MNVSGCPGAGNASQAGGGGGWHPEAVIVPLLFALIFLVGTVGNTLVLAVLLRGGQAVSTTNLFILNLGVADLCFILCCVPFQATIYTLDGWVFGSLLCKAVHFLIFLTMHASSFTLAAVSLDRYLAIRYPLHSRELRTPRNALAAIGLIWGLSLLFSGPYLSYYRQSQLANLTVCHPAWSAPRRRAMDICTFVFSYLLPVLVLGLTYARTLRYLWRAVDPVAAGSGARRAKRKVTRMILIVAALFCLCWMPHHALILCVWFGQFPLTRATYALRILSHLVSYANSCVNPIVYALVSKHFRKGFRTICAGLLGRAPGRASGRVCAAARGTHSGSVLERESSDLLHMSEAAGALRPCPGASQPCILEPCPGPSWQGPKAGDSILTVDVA
PKD1 kinase inh: PKD1 (human) kinase inhibition. actives 0.056% (n = 200,000). Q15139. inhibition, %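 (about 10 µM by stock and volumes)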. PKD1 kinase fluorescence polarization assay;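 active = inhibition of 50% or more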;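 also: controls were vehicle for no effect and a reference inhibitor for full effect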
Insulin prom inh: TRM-6 insulin promoter activity inhibition; TRM-6 cells (human fetal islet line), insulin promoter-eGFP reporter, imaging; reporter expression induced with tamoxifen; inhibition, % at 2 µM; actives 0.9% (n = 130,000);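 active = inhibition above the mean plus 3 SD, with well images judged a real hit on visual review, cut at about 60% in these data, passing the limit was not always enough; inconclusive = inhibition over the cutoff but images rejected on review; inactive = inhibition not above the cutoff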
RGS16-Gao: RGS16-Galphao interaction regulator (human) | binding response (% of control), % at 10 µM | actives 0.38% (n = 220,000) | bead-based flow cytometry RGS16-Galphao binding, fluorescence; actives lie on both sides | O15492+P09471 | AID 1441;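 active = below 25% or above 175%, edge rows of some plates excepted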;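 also: Galphao activated by GDP with aluminum fluoride before binding; 100% = wells without compound and 0% = beads without RGS; some results beyond the cut were filed as inactive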
Target sequence (O15492 whole entry, looked up): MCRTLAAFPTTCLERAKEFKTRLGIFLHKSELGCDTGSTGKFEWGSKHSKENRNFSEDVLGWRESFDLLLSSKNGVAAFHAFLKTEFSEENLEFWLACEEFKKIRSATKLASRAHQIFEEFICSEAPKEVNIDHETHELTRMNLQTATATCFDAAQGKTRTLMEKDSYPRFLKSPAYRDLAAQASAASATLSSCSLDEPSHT
Target sequence (P09471 whole entry, looked up): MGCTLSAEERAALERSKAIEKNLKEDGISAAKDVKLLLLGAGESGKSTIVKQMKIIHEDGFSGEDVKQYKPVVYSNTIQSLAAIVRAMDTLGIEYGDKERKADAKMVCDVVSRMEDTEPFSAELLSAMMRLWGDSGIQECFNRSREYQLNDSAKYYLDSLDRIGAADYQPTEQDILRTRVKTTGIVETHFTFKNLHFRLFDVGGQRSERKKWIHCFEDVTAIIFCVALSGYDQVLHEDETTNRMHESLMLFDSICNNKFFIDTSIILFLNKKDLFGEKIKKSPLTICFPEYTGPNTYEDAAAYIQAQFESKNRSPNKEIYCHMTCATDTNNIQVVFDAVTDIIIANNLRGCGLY
Insulin prom inh cell count: also measured in Insulin prom inh; calls as there; normalized cell count, %; measured here: cell count, toxicity; reference of the scale not given here;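 cells exposed to compound for 48 h; stained nuclei by imaging scaled within each plate; lower means fewer cells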
HSV replic up primary fold: further read-out of HSV replic up, marked with its call; fold increase; compound at 10 µM; measured here: primary screen fold increase 10 uM; tested in PC3 cells;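 GFP signal in the first replicate; 1 = infected wells without compound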
Numbers without * were called inactive. Rows are unselected; about 1.1% have a hit in one of these screens.

`O=[N+]([O-])c1cccc(/C=N\N2CCN(c3ccc(Cl)cc3)CC2)c1` gave HSV replic up inactive, GALR2 agonist -1.1, PKD1 kinase inh 0, RGS16-Gao 105 and HSV replic up primary fold 0.89.
For CCOc1ccccc1C(=O)N(Cc1ccco1)C1CCS(=O)(=O)C1 (stereo unspecified) the results were HSV replic up inactive, GALR2 agonist -0.7, PKD1 kinase inh 2, Insulin prom inh -18, RGS16-Gao 113, Insulin prom inh cell count 88 and HSV replic up primary fold 1.
`Fc1ccc(Sc2cc(Cl)c(-c3ccccc3)nn2)cc1` gave HSV replic up inactive, GALR2 agonist 1.1, PKD1 kinase inh -8, Insulin prom inh 43, RGS16-Gao 101, Insulin prom inh cell count 76 and HSV replic up primary fold 1.
`Cc1ccc(S(=O)(=O)N2CCN(C(=O)N3CCOCC3)C2C(C)C)cc1` (stereo unspecified) gave HSV replic up inactive, GALR2 agonist -3.2, PKD1 kinase inh -3, Insulin prom inh -121, RGS16-Gao 101, Insulin prom inh cell count 125 and HSV replic up primary fold 1.1.
`O=C(O)C1=C[C@@H](c2ccc3c(c2)OCO3)C[C@@H](OCc2ccc(CO)cc2)O1` gave HSV replic up inactive, PKD1 kinase inh 6, RGS16-Gao 97 and HSV replic up primary fold 0.86.
`COc1cc(NC(=O)C2CCN(S(=O)(=O)c3cnc[nH]3)CC2)cc(OC)c1OC` gave HSV replic up inactive, GALR2 agonist 0.8, PKD1 kinase inh -8, Insulin prom inh 12, RGS16-Gao 97, Insulin prom inh cell count 119 and HSV replic up primary fold 0.74.
O=C(CSc1ccccc1)Nc1ccccc1N1CCOCC1 was read as HSV replic up inactive, GALR2 agonist -1.4, PKD1 kinase inh 13, Insulin prom inh 0, RGS16-Gao 89, Insulin prom inh cell count 60 and HSV replic up primary fold 0.82.
`O=C(CN(c1ccc(F)cc1)S(=O)(=O)c1ccc2c(c1)OCCO2)Nc1cccnc1` gave HSV replic up inactive, GALR2 agonist -0.1, PKD1 kinase inh -3, Insulin prom inh 14, RGS16-Gao 107, Insulin prom inh cell count 81 and HSV replic up primary fold 1.1.
CC(C)C1CC(=O)NC(SCC(=O)Nc2ccc(Br)cc2)=C1C#N (stereo unspecified) was read as HSV replic up inactive, GALR2 agonist -1.9, PKD1 kinase inh -4, RGS16-Gao 96 and HSV replic up primary fold 0.92.
O=C(Nc1ccc(NC(=O)C2CCCN2C(=O)OCc2ccccc2)cc1)c1ccco1 (stereo unspecified) was read as HSV replic up inactive, GALR2 agonist -2.2, PKD1 kinase inh -12, RGS16-Gao 105 and HSV replic up primary fold 0.97.
For CN1C(=O)/C(=C/c2ccc(C(=O)NC3CCCC3)cc2)Oc2ccccc21 the results were HSV replic up inactive, PKD1 kinase inh -2, RGS16-Gao 106 and HSV replic up primary fold 0.8.
Cc1nn(CC(=O)Nc2ccc(C#N)cc2)c(C)c1[N+](=O)[O-] was read as HSV replic up inactive, PKD1 kinase inh -6, Insulin prom inh 53, RGS16-Gao 101, Insulin prom inh cell count 102 and HSV replic up primary fold 1.
Cn1c(=O)[nH]c(=O)c2c1nc(NCCCO)n2CCCc1ccccc1 was read as HSV replic up inactive, GALR2 agonist -1.3, PKD1 kinase inh -1, Insulin prom inh 57, RGS16-Gao 96, Insulin prom inh cell count 67 and HSV replic up primary fold 0.88.
Screening Cc1cc(O)cc2c1C(c1ccc(F)cc1)CC1(CC(C)(C)NC(=S)N1)O2 (stereo unspecified) returned HSV replic up inactive, PKD1 kinase inh 4, RGS16-Gao 109 and HSV replic up primary fold 1.1.
Screening CC(C)(CO)NC(=O)CC1C(=O)NCCN1CC(c1ccccc1)c1ccccc1 (stereo unspecified) returned HSV replic up inactive, PKD1 kinase inh -7, RGS16-Gao 104 and HSV replic up primary fold 0.96.
`Cc1ccc(/C=N/NC(=O)Cn2ccc(C(F)(F)F)n2)o1` gave HSV replic up inactive, PKD1 kinase inh -5, Insulin prom inh -8, RGS16-Gao 104, Insulin prom inh cell count 128 and HSV replic up primary fold 0.82.
Screening CC(=O)NCCOc1cccc(OCCNC(C)=O)c1 returned HSV replic up inactive, GALR2 agonist -0.2, PKD1 kinase inh -4, Insulin prom inh -144, RGS16-Gao 102, Insulin prom inh cell count 59 and HSV replic up primary fold 0.97.
`CCCN1Cc2cccc(C(=O)NCc3ccc(C)cc3)c2C1=O` gave HSV replic up inactive, PKD1 kinase inh -3, RGS16-Gao 107 and HSV replic up primary fold 0.84.
O=C(CSc1ccc(Cl)cc1)NCc1ccncc1 was read as HSV replic up inactive, PKD1 kinase inh -5, Insulin prom inh 59, RGS16-Gao 103, Insulin prom inh cell count 117 and HSV replic up primary fold 0.87.
CCCS(=O)(=O)N1CCC(CCOc2ccccc2)(C(=O)OCC)CC1 was read as HSV replic up inactive, PKD1 kinase inh 0, RGS16-Gao 106 and HSV replic up primary fold 0.86.
`CC(C)(C)c1cc(=O)n2c(nc3ccccc32)[nH]1` gave HSV replic up inactive, GALR2 agonist -4.7, PKD1 kinase inh -7, RGS16-Gao 90 and HSV replic up primary fold 0.87.
Screening Cc1ccc(S(=O)(=O)c2ccccc2)cc1S(=O)(=O)N1CCOCC1 returned HSV replic up inactive, GALR2 agonist -3.0, PKD1 kinase inh -3, Insulin prom inh 12, RGS16-Gao 138, Insulin prom inh cell count 82 and HSV replic up primary fold 0.86.
For COc1ccc(CCc2nnc(CCC(=O)NCCc3ncccc3C)o2)cc1 the results were HSV replic up inactive, PKD1 kinase inh -3, Insulin prom inh -4, RGS16-Gao 105, Insulin prom inh cell count 151 and HSV replic up primary fold 1.
O=C(Oc1cccccc1=O)c1ccccc1 was read as HSV replic up inactive, PKD1 kinase inh -5, RGS16-Gao 103 and HSV replic up primary fold 0.97.
For O=C(CNC(=S)N(Cc1ccccc1)Cc1cccnc1)NCc1ccccc1 the results were HSV replic up inactive, PKD1 kinase inh 1, Insulin prom inh 33, RGS16-Gao 102, Insulin prom inh cell count 119 and HSV replic up primary fold 1.
For COc1cccc(C(=O)COC(=O)c2ccc(NC(C)=O)cc2)c1 the results were HSV replic up inactive, GALR2 agonist -0.3, PKD1 kinase inh -8, Insulin prom inh 32, RGS16-Gao 49, Insulin prom inh cell count 58 and HSV replic up primary fold 1.1.
`O=C(NNC(=O)C1[C@H]2CCCC[C@@H]12)NC1CCCCC1` (stereo partly specified) gave HSV replic up inactive, GALR2 agonist 0.0, PKD1 kinase inh 4, Insulin prom inh 36, RGS16-Gao 108, Insulin prom inh cell count 127 and HSV replic up primary fold 0.87.
Brc1ccc2nc(-c3c[nH]c4ccccc34)cn2c1 was read as HSV replic up inactive, PKD1 kinase inh -7, RGS16-Gao 102 and HSV replic up primary fold 0.97.
`O=C(Nc1ccc2c(c1)OCCO2)C1c2ccccc2C(=O)N2CCc3ccccc3C12` (stereo unspecified) gave HSV replic up inactive, GALR2 agonist -2.5, PKD1 kinase inh -13, RGS16-Gao 101 and HSV replic up primary fold 0.83.
For Nc1ccc2nc3c(=O)n(C4CCCCC4)c(=O)[nH]c3nc2c1 the results were HSV replic up inconclusive and RGS16-Gao 101.
`NC(=O)CC(NC(=O)c1ccccc1)c1ccc(NCCc2cccc(F)c2)c([N+](=O)[O-])c1` (stereo unspecified) gave HSV replic up inactive, RGS16-Gao 101 and HSV replic up primary fold 0.9.
`CCOC(=O)C1CCN(C(=O)Nc2ccc(OC)c(OC)c2)CC1` gave HSV replic up inactive, GALR2 agonist -1.4, PKD1 kinase inh -14, Insulin prom inh -2, RGS16-Gao 106, Insulin prom inh cell count 85 and HSV replic up primary fold 1.1.
For CC(=O)N1CCCC(C(=O)c2ccc3c4c(cccc24)CC3)C1 (stereo unspecified) the results were HSV replic up inactive, PKD1 kinase inh 3, Insulin prom inh 33, RGS16-Gao 105, Insulin prom inh cell count 117 and HSV replic up primary fold 0.95.
`COc1ccc(C(=O)NNC(=O)CSc2nnc(COc3ccccc3)n2C)cc1` gave HSV replic up inactive, GALR2 agonist -2.2, PKD1 kinase inh -2, Insulin prom inh -54, RGS16-Gao 102, Insulin prom inh cell count 61 and HSV replic up primary fold 1.
Screening COc1ccccc1/C=C/C(=O)c1ccc(NC(C)=O)cc1 returned HSV replic up inactive, GALR2 agonist -0.3, PKD1 kinase inh -6, Insulin prom inh 14, RGS16-Gao 10, Insulin prom inh cell count 66 and HSV replic up primary fold 0.61.
Screening CCc1cc2c(SCC(=O)c3cccs3)ncnc2s1 returned HSV replic up inactive, GALR2 agonist -5.1, PKD1 kinase inh -8, Insulin prom inh -24, RGS16-Gao 105, Insulin prom inh cell count 154 and HSV replic up primary fold 0.93.
For N#C/C(=C\c1cccc([N+](=O)[O-])c1)C(=O)NCc1cccnc1 the results were HSV replic up inactive, GALR2 agonist -0.7, PKD1 kinase inh 1, Insulin prom inh -37, RGS16-Gao 103, Insulin prom inh cell count 67 and HSV replic up primary fold 1.
Screening CCOc1ccc(N(Cc2ccc(OC)cc2)C(=O)c2ccco2)cc1 returned HSV replic up inactive, PKD1 kinase inh 0, Insulin prom inh 0, RGS16-Gao 105, Insulin prom inh cell count 73 and HSV replic up primary fold 1.
`CC(=O)N(CCC1(C(C)C)CCOC(C)(C)C1)C(C)c1cccs1` (stereo unspecified) gave HSV replic up inactive, RGS16-Gao 96 and HSV replic up primary fold 1.1.
COc1ccc(-c2cc(C(F)(F)F)nc(SCC(=O)N3CC(C)OC(C)C3)n2)cc1OC (stereo unspecified) was read as HSV replic up inactive, GALR2 agonist 0.2, PKD1 kinase inh -12, RGS16-Gao 94 and HSV replic up primary fold 0.91.

5 entries picked at random from the list so far:
Screening CCOc1ccc(N(Cc2ccc(OC)cc2)C(=O)c2ccco2)cc1 returned HSV replic up inactive, PKD1 kinase inh 0, Insulin prom inh 0, RGS16-Gao 105, Insulin prom inh cell count 73 and HSV replic up primary fold 1.
`O=C(O)C1=C[C@@H](c2ccc3c(c2)OCO3)C[C@@H](OCc2ccc(CO)cc2)O1` gave HSV replic up inactive, PKD1 kinase inh 6, RGS16-Gao 97 and HSV replic up primary fold 0.86.
For COc1cccc(C(=O)COC(=O)c2ccc(NC(C)=O)cc2)c1 the results were HSV replic up inactive, GALR2 agonist -0.3, PKD1 kinase inh -8, Insulin prom inh 32, RGS16-Gao 49, Insulin prom inh cell count 58 and HSV replic up primary fold 1.1.
O=C(Nc1ccc(NC(=O)C2CCCN2C(=O)OCc2ccccc2)cc1)c1ccco1 (stereo unspecified) was read as HSV replic up inactive, GALR2 agonist -2.2, PKD1 kinase inh -12, RGS16-Gao 105 and HSV replic up primary fold 0.97.
`CC(=O)N(CCC1(C(C)C)CCOC(C)(C)C1)C(C)c1cccs1` (stereo unspecified) gave HSV replic up inactive, RGS16-Gao 96 and HSV replic up primary fold 1.1.

More compounds follow.
Screening CN(CC#CCC(c1ccccc1)c1ccccc1)C(C)(C)C returned HSV replic up inactive, GALR2 agonist -2.2, PKD1 kinase inh -3, RGS16-Gao 101 and HSV replic up primary fold 1.1.
For CCOC(=O)C1=C(C)NC(=O)C1(NC(=O)c1cccnc1)C(F)(F)F (stereo unspecified) the results were HSV replic up inactive, GALR2 agonist -0.3, PKD1 kinase inh -1, Insulin prom inh -46, RGS16-Gao 114, Insulin prom inh cell count 141 and HSV replic up primary fold 1.1.
CC(C)Cn1c(CN2CCN(C(=O)c3ccco3)CC2)nc2c1c(=O)n(C)c(=O)n2C was read as HSV replic up inactive, PKD1 kinase inh 3, Insulin prom inh 39, RGS16-Gao 112, Insulin prom inh cell count 136 and HSV replic up primary fold 0.96.
Screening O=C(CCSc1ccc(Cl)cc1)N1CCCCCC1 returned HSV replic up inactive, GALR2 agonist -1.2, PKD1 kinase inh -5, Insulin prom inh -37, RGS16-Gao 100, Insulin prom inh cell count 97 and HSV replic up primary fold 1.
S=C(c1ccc(Br)cc1)N1CCN(Cc2ccccc2)CC1 was read as HSV replic up inactive, GALR2 agonist -0.2, PKD1 kinase inh 5, Insulin prom inh 33, RGS16-Gao 114, Insulin prom inh cell count 131 and HSV replic up primary fold 0.98.
For FC(F)(F)c1cccc(NC(=S)NCc2ccccn2)c1 the results were HSV replic up inactive, GALR2 agonist -2.6, PKD1 kinase inh -6, Insulin prom inh 60, RGS16-Gao 102, Insulin prom inh cell count 61 and HSV replic up primary fold 0.95.
`CCC1=C2CC[C@H]3C(=O)N(CC(=O)OC)C(=O)[C@H]3[C@H]2[C@@]2(C)C(=NCC(=O)OC)OC(=O)N2C1=O` gave HSV replic up inactive, RGS16-Gao 105 and HSV replic up primary fold 1.
For CCc1ccc(NC(=O)CN(c2ccc3c(c2)OCO3)S(=O)(=O)c2c(C)noc2C)cc1 the results were HSV replic up inactive, GALR2 agonist -4.4, PKD1 kinase inh -23, RGS16-Gao 106 and HSV replic up primary fold 0.8.

Bioassay records (PubChem)
